# Env fusion inh: blocks HIV Env-driven cell-cell fusion | inhibition, % at 12.3 µM | AID 651610 | HeLa-JRFL Env/CEM21 cell fusion, luciferase | hit rate 1.1% among 360,000;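 active = mean replicate inhibition score of at least 50 and every replicate individually at or above 50; inconclusive = only one of the two criteria met; inactive = mean below 50 and not all replicates reaching 50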;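 note: 0% = plate neutral controls and 100% = maraviroc near 300 nM; one replicate is shown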
# eIF4H FP inh: inhibitors of RNA binding by human eIF4H. AID 2012. Q15056. hit rate 0.94% among 290,000. eIF4H fluorescence polarization binding assay. inhibition, % at 35 µM;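 active = 50% or more with normal probe brightness, or confirmed in later tests; inconclusive = above 50% with abnormal brightness, or retests that disagree; inactive = below 50% or failed in later tests; about a fifth of its hits are not listed in these tables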;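 note: calls also rest on retests at 20 µM and on dose response follow-up; 0% = protein and probe with vehicle and 100% = probe without protein; strong numbers were not always called active; many hits fall short of the cut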
# Rce1 inhib: inhibitors of yeast Ras-converting enzyme | Q03530 | yeast membranes, quenched prenylated peptide cleavage fluorescence | calls only | hit rate 0.27% among 290,000;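 active = fall in fluorescence gain of 50% or more versus controls, with final raw signal at or below 3038400; inconclusive = same 50% fall but final raw signal above 3038400; inactive = fall in fluorescence gain under 50%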;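 note: plate controls were neutral control wells for no effect and wells lacking membranes for full effect; tested at 10 µM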
# MT1-MMP act inh: blocks activation of human MT1-MMP; P50281; HT1080 RFP-PRO-GFP cells, GFP/RFP ratio fluorescence, overnight; percent of plate control window, DMSO zero; GFP/RFP ratio change, % at 20 µM; hit rate 0.061% among 360,000; AID 651647;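 active = GFP/RFP ratio change of at least 30% with cell ATP level not reduced by more than half and red fluorescence within 50% of control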; note: strong numbers were not always called active
#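 Assay system: HT1080 RFP-PRO-GFP cells | Dosing: 20 µM single dose, 1% DMSO | Incubation: Cells overnight before dosing, compound overnight, 37 °C, 5% CO2 | Evaluation: GFP/RFP fluorescence ratio | Control set: DMSO-only wells and HT1080 RFP-L50D-GFP cell wells as references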
# CSC inhib: cancer stem cell inhibition. hit rate 1.1% among 300,000. cancer stem cell-like cells viability, luminescence. inhibition, % at 7.5 µM;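 active = mean at 75% or more and at least half the replicates too; inconclusive = mean and replicates disagree; tested in HMLE shEcad cells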;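 note: 0% = median of negative and 100% = median of positive control wells; the first replicate is given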
# Yeast UUG start: yeast start codon fidelity modulation; activity score, % at 18.7 µM; hit rate 0.13% among 350,000; S. cerevisiae UUG-firefly luciferase reporter, luminescence/redox ratio; AID 602363;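 active = replicate mean at a twofold rise or more, about +100% in these data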;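 note: firefly luciferase made from a UUG start codon reports start codon fidelity; reporter light over untreated wells divided by growth signal over untreated wells; some hits fall short of that in this replicate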
# PABP FP inh: blocks human PABP binding to poly(A) RNA; P11940; fluorescence polarization; inhibition, % at 35 µM; hit rate 1% among 290,000;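 active = 50% or more with normal probe brightness, or confirmed in later tests; inconclusive = above 50% with abnormal brightness, or retests that disagree; inactive = below 50% or failed in later tests; about a fifth of its hits are not listed in these tables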;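 note: calls also rest on retests at 20 µM and on dose response follow-up; controls were probe without protein and protein plus probe with vehicle; some compounds called inactive have numbers as strong as hits; many hits fall short of the cut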
# Target sequence (P11940 whole entry, looked up): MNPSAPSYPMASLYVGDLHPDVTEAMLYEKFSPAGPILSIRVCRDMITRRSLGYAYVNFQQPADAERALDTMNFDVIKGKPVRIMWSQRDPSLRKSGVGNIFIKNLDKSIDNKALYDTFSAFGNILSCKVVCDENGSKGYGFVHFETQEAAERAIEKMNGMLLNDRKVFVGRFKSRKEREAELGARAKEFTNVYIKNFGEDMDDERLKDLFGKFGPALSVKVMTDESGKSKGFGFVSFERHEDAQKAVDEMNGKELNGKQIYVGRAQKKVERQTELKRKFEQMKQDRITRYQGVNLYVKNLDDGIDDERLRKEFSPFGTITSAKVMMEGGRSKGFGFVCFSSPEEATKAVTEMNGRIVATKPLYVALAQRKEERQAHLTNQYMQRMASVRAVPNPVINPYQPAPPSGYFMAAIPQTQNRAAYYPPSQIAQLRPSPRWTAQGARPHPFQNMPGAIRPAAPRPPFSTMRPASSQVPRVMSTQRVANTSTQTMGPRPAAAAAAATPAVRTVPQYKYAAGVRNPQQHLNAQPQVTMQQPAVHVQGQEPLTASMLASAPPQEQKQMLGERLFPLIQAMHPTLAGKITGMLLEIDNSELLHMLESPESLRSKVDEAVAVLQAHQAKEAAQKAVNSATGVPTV
# eIF4H FP inh retest: also measured in eIF4H FP inh; calls as there; inhibition, %; compound at 20 µM; confirmation average;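 mean of two retest wells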
# PABP FP inh retest: second read-out of PABP FP inh, no call of its own (marks repeat the call); inhibition, %; compound at 20 µM; confirmation repeats;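 mean of two retest wells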
# MT1-MMP act inh RFP: further read-out of MT1-MMP act inh, marked with its call; RFP signal change, %; measured here: RFP expression control read;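 0 = vehicle wells; hits needed this value within 50% of zero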
# Numbers without * were called inactive; i = inactive; ? = inconclusive; / = no result given.
SMILES,Env fusion inh,eIF4H FP inh,Rce1 inhib,MT1-MMP act inh,MT1-MMP act inh RFP,CSC inhib,Yeast UUG start,PABP FP inh,others
NC(=O)c1nsc(C(=O)N(c2ccccc2)C(C(=O)NC2CCCCC2)c2ccc(O)cc2)c1N (centres undefined),3,0,i,-1,1,-4,-8,-2,
O=C(c1cc(COc2ccc(F)cc2Cl)on1)N1CCc2ccccc2C1,4,6,i,-1,-4,12,-12,-15,
COc1cc(OC)cc(C(=O)N2CCN(C(=O)COc3ccc4ccccc4c3)CC2)c1,/,-4,i,0,0,1,4,7,
Cc1cccc(C)c1NC(=O)C1(NC(=O)c2cnccn2)CCCCC1,-11,-6,i,4,-3,-9,-16,6,
CCCn1c(SCC(=O)Nc2ccc(S(=O)(=O)N(C)C)cc2)n[nH]c1=O,-17,1,i,-1,2,-9,-16,-5,
CCOC(=O)Cc1csc(N/N=C/c2cccc([N+](=O)[O-])c2)n1,0,1,i,2,-2,-9,-14,7,
COc1cc(C)c(C(=O)Oc2cc(C)c(C(=O)O)c(O)c2C)c(O)c1C(=O)O,/,/,i,-2,-4,-6,-7,/,
CC1=C(C(=O)OCc2ccccc2)C(c2cccc(F)c2)NC(=O)N1 (centres undefined),13,4,i,3,-14,11,-16,6,
Cc1ccc(C)c(NS(=O)(=O)c2cc(C(=O)NCC3CCCO3)ccc2C)c1 (centres undefined),6,-5,i,-5,-5,-9,-3,-6,
N#Cc1ccc(C23CC4(C2)[C@H](CN(Cc2ccc(C(F)(F)F)cc2)[C@@H]4c2ccccc2)C3c2ccc(C(F)(F)F)cc2)cc1 (some centres undefined),-17,-4,i,/,/,21,/,-11,
CS(=O)(=O)N(CC(=O)NC1CC2CCC1C2)c1ccc(Oc2ccccc2)cc1 (centres undefined),20,2,i,3,-5,-7,/,2,
O=C1C(=O)N(CCO)C(c2ccccc2[N+](=O)[O-])/C1=C(\O)c1ccccc1 (centres undefined),3,1,i,-1,2,-3,-17,10,
CCOc1ccccc1-n1nnnc1SCC(=O)NCc1ccco1,20,1,i,2,4,-6,/,8,
Cc1ccc(C2=NS(=O)(=O)N(C)C(C(=O)Nc3ccc4c(c3)OCO4)=C2)cc1,-4,-4,i,4,-7,8,-13,-7,
CC1CN(Cc2nc3c(c(=O)n(C)c(=O)n3C)n2CCCO)CC(C)O1 (centres undefined),-5,-1,i,/,/,-8,-11,16,
Cc1ccc(SCC(=O)Nc2ncc(C)s2)cc1,-12,-14,i,-30,-4,-15,-13,10,
CC(Sc1nnc(-c2ccncc2)n1C)C(=O)Nc1nccs1 (centres undefined),2,0,i,-2,2,/,-23,0,
Cc1ccc(/C=N/NC(=O)C[n+]2ccccc2)s1,2,-4,i,-4,0,-6,/,14,
O=C(Cc1cccs1)N(c1ccccc1)C1C=CS(=O)(=O)C1 (centres undefined),/,-2,i,-2,4,-13,-23,10,
CN1CCN(CC(=O)N2c3ccccc3C(C)(c3ccc(Cl)cc3)CC2(C)C)CC1 (centres undefined),/,-5,i,-9,-2,0,/,8,
Cc1ccc(SCCNC(=O)c2ccc(CN3CCOCC3)cc2)cc1,-10,-9,i,1,-2,-4,-12,23,
O=Cc1ccc(OCc2cccc(C(F)(F)F)c2)cc1O,3,-7,i,7,5,35,/,-9,
COc1ccc(CN2CCN(C(=O)c3ccco3)CC2)c(OC)c1OC,-39,/,i,-8,-4,-2,-6,/,
C[C@@H]1ON(C)[C@H]2C[C@H]3c4cc(-c5cccc(F)c5)ccc4CCN3C(=O)[C@@H]12,-148,/,/,3,1,/,-3,/,
CCc1ccccc1NC(=O)C1CCCN1S(=O)(=O)c1ccc(-c2ccc(=O)[nH]n2)s1 (centres undefined),24,-3,i,1,0,11,-20,-1,
COc1ccccc1NC(=O)c1ccc(NC(=O)CSc2ncccn2)cc1,2,-10,i,4,7,-6,/,-7,
COc1ccc2c(c1OC)C(=O)N(c1ccc(O)cc1)C2=O,-2,-5,i,2,2,-7,/,4,
NC1=NC(=O)/C(=C/c2ccccc2OCC(=O)Nc2ccc(F)cc2)S1,/,/,/,6,1,-6,-10,/,
COc1ccc(C(=O)Nc2ccc3c(c2)OCCO3)c(OC)c1,-132,/,/,-4,5,/,-20,/,
CCOc1ccccc1NC(=O)COC(=O)CNS(=O)(=O)c1ccc(C)cc1,8,-4,i,4,8,-2,/,-3,
COCCOc1cc(-n2ccnc2SC)c(Cl)cc1Cl,/,-4,i,3,-2,-1,-8,-1,
Cc1ccc(-c2cc(C(=O)N3CCCc4ccccc43)c3ccccc3n2)cc1,0,6,i,-1,-5,32,-17,6,
Cn1cc(/C=N\O)nc2c(=O)n(-c3ccccc3)c(=O)nc1-2,8,99,i,-9,26,-8,/,63,eIF4H FP inh retest=16;PABP FP inh retest=5
CC(NC(=O)CC1Nc2ccccc2NC1=O)c1ccccc1 (centres undefined),/,0,i,-1,5,-9,-15,13,
CCOC1=C2CN(S(=O)(=O)c3ccc(C)cc3)CC[C@@H]2N(S(=O)(=O)c2ccc(C)cc2)[C@H](c2ccccc2)C1,-19,/,/,-4,-8,/,-9,/,
Cc1ccnc(NC(=O)c2ccc3c(c2)S(=O)(=O)c2ccccc2C3=O)c1,-15,-7,i,2,-1,18,-6,-12,

# Pulled one by one from the entries so far, 3 records:
SMILES,Env fusion inh,eIF4H FP inh,Rce1 inhib,MT1-MMP act inh,MT1-MMP act inh RFP,CSC inhib,Yeast UUG start,PABP FP inh,others
CN1CCN(CC(=O)N2c3ccccc3C(C)(c3ccc(Cl)cc3)CC2(C)C)CC1 (centres undefined),/,-5,i,-9,-2,0,/,8,
COc1ccc(CN2CCN(C(=O)c3ccco3)CC2)c(OC)c1OC,-39,/,i,-8,-4,-2,-6,/,
Cc1ccc(-c2cc(C(=O)N3CCCc4ccccc43)c3ccccc3n2)cc1,0,6,i,-1,-5,32,-17,6,

# Carrying on.
SMILES,Env fusion inh,eIF4H FP inh,Rce1 inhib,MT1-MMP act inh,MT1-MMP act inh RFP,CSC inhib,Yeast UUG start,PABP FP inh,others
CCOc1ccc(C(=O)NC(=S)NCc2cccnc2)cc1[N+](=O)[O-],1,-1,i,1,0,21,/,0,
CCOC(=O)c1c(S(=O)(=O)N2CCCC(C)C2)c(C)n(C)c1C (centres undefined),-8,7,i,5,4,1,6,-1,
CC(=O)n1c(=O)c2ccccc2c(=O)n1-c1ccccc1,-3,-11,i,-1,6,-11,-16,-3,
COc1ccc(/C=C(\C#N)C(=O)NCC(c2ccc(F)cc2)N2CCOCC2)cc1 (centres undefined),9,-5,i,-7,-12,-5,-11,-7,
CN(C)CC(C)(C)CNC(=S)Nc1cc(S(=O)(=O)N2CCOCC2)ccc1Cl,-2,7,i,-2,9,-1,/,11,
Cc1nc2sc(C(c3cccs3)N3CCC(C(N)=O)CC3)c(O)n2n1 (centres undefined),-52,-5,i,0,6,-6,-11,35,
Cc1ccccc1Nc1nc(N)nc(COC(=O)CCNS(=O)(=O)c2ccccc2)n1,3,/,i,-4,5,10,-24,/,
Cc1cc(C(=O)COC(=O)c2ccccc2NCCO)c(C)n1CC1CCCO1 (centres undefined),/,3,i,-3,-3,17,-38,-1,
CCn1c2ccccc2c2nc3cc(C(=O)O)ccc3nc21,-89,14,/,-15,-13,/,/,14,
CCN(c1ccc(NC(=O)CCNC(=O)c2ccco2)cc1)C(C)C,-2,-1,i,2,5,-8,-18,-6,
O=c1[nH]c(=O)n(Cc2ccco2)c2c1C(C(F)(F)F)(C(F)(F)F)N=C(CCC1CCCCC1)N2,?,-7,i,-46,-39,23,-9,-7,
CCOC(=O)Cn1nc(C)c(NC(=O)COc2ccc(F)cc2F)c1C,/,10,i,-3,-3,-10,/,7,
O=C(CNC(=O)c1ccco1)OCc1ccc(Cl)cc1,/,0,i,4,6,/,/,-3,
CCC(C)(C)C(=O)Nc1cccc(Cl)c1C,-7,-7,i,-1,0,-8,/,5,
O=C(N/C(=C/c1cn(-c2ccccc2)nc1-c1ccccc1)C(=O)N1CCOCC1)c1ccccc1,/,-1,i,/,/,-2,/,3,
COc1cc(/C=C/C(=O)OC(C)C(=O)c2ccccc2)cc(OC)c1OC (centres undefined),-24,/,i,5,5,-1,-3,/,
CC(C)CC(=O)Nc1c2c(nn1-c1ccc([N+](=O)[O-])cc1)CS(=O)(=O)C2,3,1,i,3,7,4,-10,-5,
CN1CCN(c2ccc(S(=O)(=O)N3CCCCC3)cc2NC(=O)c2ccc(C#N)cc2)CC1,2,-9,i,4,6,1,/,2,
OC(COc1cccc2ccccc12)CN1CCN(c2ccccc2Cl)CC1 (centres undefined),-3,5,i,-3,3,114*,-5,5,
CC(CN1CCCC1)OC(=O)c1ccccc1Cl (centres undefined),-5,-11,i,1,3,-3,-23,2,
Cc1cc(CNC(=O)C(C)n2cc([N+](=O)[O-])cn2)c2ccccc2n1 (centres undefined),1,-1,i,-1,-3,7,-12,5,
COc1ccc(C(=O)NC(=S)NCc2ccc(-c3nc4ccccc4o3)cc2)cc1OC,-8,-9,i,0,0,18,/,8,
CC(C)(C)Cc1nnc(NS(C)(=O)=O)s1,-26,/,i,-5,5,8,/,/,
O=C(CC1C(=O)NCCN1CCCc1ccccc1)NCCc1ccccc1F (centres undefined),2,-5,i,-2,2,4,4,11,
COc1ccc2c(c1)C(=O)CC(c1ccc(OC)c(OC)c1)O2 (centres undefined),-11,-4,i,-1,-2,-5,-11,-14,
CCc1c(C)sc(NC(=O)OC)c1C(N)=O,-37,-4,i,10,8,-8,-9,-5,
Cc1ccc(Cn2c(=N)c(S(=O)(=O)c3ccc(C)cc3)cc3c(=O)n4ccccc4nc32)cc1,-7,-3,i,-48,-2,-2,-9,?,
CCN1C(=O)CC(Sc2ccccc2N)C1=O (centres undefined),/,1,i,1,5,-6,-13,-4,
COc1ccccc1CNS(=O)(=O)c1ccc(C)cc1,20,-4,i,12,0,-11,-12,4,
CCN(C(=O)CSc1nc2n[nH]c(C)c2c(=N)n1-c1ccc(Cl)c(C)c1)c1cccc(C)c1,13,-14,i,0,-4,42,-16,-5,
COc1ccc(-n2c(SCC(=O)N3CCCC3)nc3ccccc3c2=O)cc1,/,8,i,/,/,-3,/,2,
CCc1cc2c(=O)c(-c3nc4ccccc4[nH]3)coc2c(CN2CCCCC2C)c1O (centres undefined),-4,70,i,2,-5,8,-7,38,eIF4H FP inh retest=-11;PABP FP inh retest=-2
COc1ccc2oc(C(=O)OCC(=O)Nc3ccc(NC(C)=O)cc3)c(C)c2c1,-85,/,/,2,4,5,-8,/,
COc1ccc(NC(=O)Cc2c(Cl)cccc2Cl)cn1,16,8,i,-1,0,-10,/,-11,
COc1ccc(C(=O)Nc2ccc(S(=O)(=O)Nc3onc(C)c3C)cc2)cc1,/,3,i,-3,3,/,1,9,
O=S(=O)(c1cccc2ccccc12)N1CCC2CC1c1cc(-c3ccc(F)cc3)ccc12 (centres undefined),10,/,/,2,-7,/,-10,/,
CCCCn1nc(NC(=O)COC)c2cc3ccc(C)cc3nc21,/,-7,i,-5,-3,/,/,48,
NC(=O)C1CCN(C(=O)CSc2ccsc2[N+](=O)[O-])CC1,-241,20,/,-4,-1,/,/,-9,
CC(C(=O)N1c2ccc(F)cc2CCC1C)N1C(=O)c2ccccc2C1=O (centres undefined),-28,-3,i,-3,5,-4,-1,4,
CC1CN(C(=O)COC(=O)c2ccc(Cl)c(N)c2)CC(C)O1 (centres undefined),-3,2,i,-3,0,/,0,-4,

# Some of the compounds tested, so the mix of outcomes need not match the whole.
